Screening data: PubChem BioAssay, Center for Chemical Genomics, University of Michigan
HIV TAR-Tat = TAR RNA-Tat peptide displacers, HIV-1, primary screen, biochemical, FRET, FAM/TAMRA-labeled Tat; HIV-1 TAR RNA, Tat peptide displacement FRET; hits give high values; z-score (concentration not given with the values); 100,000 tested, 0.6% active;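 note: score is relative to mean and SD of negative controls; some compounds called inactive have numbers as strong as hits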
CDC25B-CDK2 inh = primary biochemical HTRF screen for blockers of M-phase inducer phosphatase 2 binding to CDK2/cyclin A | P30305+P24941 | HTRF CDC25B-CDK2/CyclinA binding, anti-His/anti-Flag; hits give high values | z-score (test concentration not listed) | 94,000 tested, 0.72% active | AID 1259370, 2018;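 note: score is relative to mean and SD of negative controls; strong numbers were not always called active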
An asterisk follows results filed as active; / = not tested or not shown.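 Rule for the calls: active = z-score from 3 up in half or more of its runs; inactive = the rest.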

Sequence of screens – CDC25B-CDK2 inh	HIV TAR-Tat
O=S(=O)(c1cnc[nH]1)N1CCN(c2ccccc2F)CC1
  -0.67	-1.41
Cc1ccc(OCc2nc(-c3ccncc3)no2)cc1
  -0.56	0.46
COc1ccc(-c2nnc3ccc(SCC(=O)Nc4nccs4)nn23)cc1
  -1.46	/
CCc1nn(CC(=O)NCCCN2CCN(CC)CC2)c(=O)c2cc3sccc3n12
  -1.33	0.9
COc1ccc(NC(=O)CSCc2cc(=O)n3ccsc3n2)cc1
  /	0.04
O=C1C2=C(c3ccccc31)C(c1ccccn1)Nc1ccc3ccccc3c12 (configuration not stated)
  -0.08	-0.02
O=C(CCSCc1ccco1)NNC(=O)N1Cc2ccccc2Oc2ccc(Cl)cc21
  -0.7	/
O=C(Cn1c(=O)sc2ccccc21)Nc1nncs1
  -0.09	1.63
COC(=O)c1sccc1NC(=O)NC(c1ccccc1)c1nnc(-c2ccccc2)o1 (configuration not stated)
  /	2.31
COC(=O)c1c(SCc2ccccc2F)[nH]c2ccccc2c1=O
  /	-0.11
CCC(/C=C/[C@@H](C)[C@H]1CCC2C3CC=C4C[C@@H](O)CC[C@]4(C)C3CC[C@@]21C)C(C)C (some centres not stated)
  /	1.26
COc1ccccc1Oc1ccccc1[N+](=O)[O-]
  -1.71	/
c1ccc(CC2CCN(CCCNc3nn4nnnc4c4ccccc34)CC2)cc1
  -1.59	1.05
CN(C)c1ccc(C2Nc3ccccc3NC3=C2C(=O)CCC3)cc1 (configuration not stated)
  -2.53	/
Cc1nn(C(=O)CC(C)C)c(C)c1S(=O)(=O)N1CCc2ccccc2C1
  /	0.47
CC(C)c1ccc(CNS(=O)(=O)c2ccc3c(c2)C(C)(C)C(=O)N3C)cc1
  /	0.87
O=C(C1CCCN(S(=O)(=O)c2cccc3nsnc23)C1)N1CCN(c2ncccn2)CC1 (configuration not stated)
  -0.27	1.21
CCOc1ccc(-c2noc(-c3nnn(-c4ccccc4C)c3N)n2)cc1
  /	0.94
CCCN1CCN(CCCNC(=O)Cn2nc(C)n3cccc3c2=O)CC1
  -0.54	1.36
CCC(C)NC(=O)C(C)n1sc2ccccc2c1=O (configuration not stated)
  -1.66	3.55
Cc1nnc2sc(COc3ccc(F)cc3)nn12
  -0.94	1.74
COc1ccc(NS(=O)(=O)c2ccc(-c3ccc(=O)[nH]n3)s2)cc1
  /	0.37
O=C(Nc1ccc2nn(-c3cccc(Cl)c3)nc2c1)c1ccco1
  -2.19	1.2
O=[N+]([O-])c1ccc(NC2CCSC2)c([N+](=O)[O-])c1 (configuration not stated)
  -1.89	/
COc1cc2c(C(=O)NCC3CCCO3)cn(CC(C)C)c(=O)c2cc1OC (configuration not stated)
  0.32	/
OC(COc1ccccc1)CN1CCNCC1 (configuration not stated)
  -1.2	/
Nc1ccc(-c2nc3c(Cl)cccc3[nH]2)cc1
  -2.73	1.8
O=C(CN1c2ccccc2NC2=C(C(=O)CCC2)C1c1ccco1)Nc1ccccc1 (configuration not stated)
  /	1.06
Cc1ccc(C(=O)C2OC(=O)C(C)(C)C(=O)C2(C)C)cc1 (configuration not stated)
  -2.69	/
Cc1nn2c(=O)cc(COc3ccc(NC(=O)CC(C)C)cc3)nc2s1
  -1.11	-0.01
CCc1nnc2sc(COc3ccc(F)cc3)nn12
  0.18	0.53
CN(C)S(=O)(=O)Oc1cccc(F)c1OS(=O)(=O)N(C)C
  -1.38	/
O=C1C=C(NCC2CCCO2)C2(CCCCC2)O1 (configuration not stated)
  0.34	/
Cc1ccc2nc(-n3nc(C)c4c3NC(=O)CC4c3ccc(C(C)(C)C)s3)sc2c1 (configuration not stated)
  /	0.42
Cc1ccc2oc(SCC(=O)Nc3ccccc3Br)nc2n1
  /	0.38
COC(=O)C1=C(NC(C)=O)CCC(C(=O)OC)C1 (configuration not stated)
  -1.87	/
CC1=C(C(=O)OCCc2ccccc2)C(c2ccsc2)NC(=O)N1C (configuration not stated)
  -1.35	/
COc1ccc(NC(=O)Nc2c(C)n(C)n(-c3ccccc3)c2=O)cc1
  -0.4	1.75
CCOC(=O)c1[nH]c(C)c(C(=O)N(C)C)c1C
  -0.7	/
CN(C(=O)Cc1ccc(NC2=NC3CS(=O)(=O)CC3S2)cc1)C1CCCCC1 (configuration not stated)
  -0.81	-1.95

Filtered by structure: those above containing an aryl thioether with sulfur outside any ring
Sequence of screens – CDC25B-CDK2 inh	HIV TAR-Tat
COc1ccc(-c2nnc3ccc(SCC(=O)Nc4nccs4)nn23)cc1
  -1.46	/
COC(=O)c1c(SCc2ccccc2F)[nH]c2ccccc2c1=O
  /	-0.11
Cc1ccc2oc(SCC(=O)Nc3ccccc3Br)nc2n1
  /	0.38

Next section.
Sequence of screens – CDC25B-CDK2 inh	HIV TAR-Tat
O=S(=O)(Nc1ccc2c(c1)OCCO2)c1ccc(-c2cnc(C3CC3)o2)cc1
  /	1.35
Cc1cccc(Nc2nc3ccccc3c3nnc(C)n23)c1C
  /	1.05
CC1Cc2cc(S(=O)(=O)NC3CCCC3)ccc2N1C(=O)C1CCC1 (configuration not stated)
  /	1.54
Cc1cc(C)c2c3c(sc2n1)C(=O)N(c1ccccc1F)CN3
  -3.1	2.57
CC(C)OC(=O)c1cccc(C(=O)Oc2ccc(Br)cc2)n1
  -0.31	1.03
O=C(NCc1ccc2c(c1)OCO2)c1nc(-c2ccncc2)no1
  /	2.18
CCN(CC)CCCNc1ncnc2c1cnn2-c1ccc(C)c(Cl)c1
  /	-0.15
COC(=O)c1c(C)[nH]c(C)c1C(=O)c1ccccc1Cc1ccccc1
  -1.31	/
OC(COc1ccc(Cl)cc1Cl)Cn1ccnc1 (configuration not stated)
  -0.94	/
CC1=C(c2ccccc2)S(=O)(=O)NC1=NC1CCCC(C)C1C (configuration not stated)
  -11.3	0.33
COc1ccc(C2=C(C)C(N3CCN(Cc4ccc5c(c4)OCO5)CC3)=NS2(=O)=O)cc1
  -1.67	1.08
O=C(Nc1ccccc1C(=O)NCc1ccccc1)c1ccccc1Cl
  0.52	/
CN1CCN(C(=O)C2CCN(c3nnc(-n4cccc4)s3)CC2)CC1
  /	0.57
Cc1nc2c(c(SC(C)C(=O)Nc3ccc(F)cc3)n1)CCC2 (configuration not stated)
  0.08	0.75
CC1(C2(C)OCCO2)OCCO1
  -1.3	/
Cc1nnc2n1NC(c1ccc(Cl)cc1)C(C(=O)NCC1CCCO1)S2 (configuration not stated)
  -0.53	-0.95
Cc1ccc(S(=O)(=O)NCCc2sc3nc(-c4ccc(Cl)cc4)nn3c2C)cc1
  /	0.91
CC1Sc2ccc(S(=O)(=O)CCC(=O)NC3CCCCC3C)cc2NC1=O (configuration not stated)
  /	0.82
O=C(Nc1ccc(Cl)cc1)Nc1c[nH]c(=O)[nH]c1=O
  /	0.25
CCC(C)(C)NS(=O)(=O)c1ccc2c(c1)N(C(C)=O)CCCS2
  /	-0.13
CCOC(=O)C(=CNc1cccc(-c2nn(C)cc2Br)c1)C(=O)OCC
  -0.41	/
CCC(CC)C(=O)N1CCC(C(=O)NCc2csc(-c3cccs3)n2)CC1
  /	1.12
Clc1ccc(-n2ncc3c(NCc4ccco4)ncnc32)cc1
  /	1.64
CN1CCOc2ccc(S(=O)(=O)NC3CCCc4ccccc43)cc21 (configuration not stated)
  /	0.24
COC(=O)c1cccc2c(O)c(-c3ccncc3)[nH]c12
  2.32	0.52
CCc1nc(SCc2cc(=O)n3[nH]cnc3n2)n[nH]1
  /	1.17
CCOC(=O)C1CCCN(c2cc(NCCCC(=O)O)c3c4c(onc24)-c2ccccc2C3=O)C1 (configuration not stated)
  10.6*	20.7*
CC(C)Cn1cc(NC(=O)Nc2ccc(F)cc2Cl)c2ccccc2c1=O
  /	1.85
CCN1CCCC1CNc1ncnc2onc(-c3ccc(Cl)cc3)c12 (configuration not stated)
  -0.86	0.57
CCN(CC)CCN1C(=O)c2ccc(-c3ccco3)n2CC1(C)C(=O)NC1CCCC1 (configuration not stated)
  /	2.18
O=C1CN(Cc2ccc(F)cc2Cl)S(=O)(=O)c2ccccc2N1Cc1ccccc1F
  /	0.93
CC1CN(c2ccccc2)c2nc3c(c(=O)n(CC(=O)O)c(=O)n3C)n2C1 (configuration not stated)
  -1.25	-0.19
O=C(c1cc(-c2cccs2)[nH]n1)N1CCN(C(=O)c2cccs2)CC1
  /	0.4
Cn1cnc(S(=O)(=O)N2CCC(Cc3ccccc3)CC2)c1
  /	1.22
CC1CCCCN1CCCNC(=O)Nc1cn(C)c(=O)c2ccccc12 (configuration not stated)
  2.31	-1.62
Cc1ccc(N2C(=O)c3oc4ccccc4c(=O)c3C2c2ccc(Br)cc2)nc1 (configuration not stated)
  -0.79	0.24
Cc1ccc(-c2nc3ncccn3c2NCc2ccc(Cl)cc2)cc1
  /	0.46
O=[N+]([O-])c1cccc(-c2noc(-c3c(F)cccc3F)n2)c1
  -0.94	/
Cc1cc(Nc2cccc(Cl)c2)nc(N2CCOCC2)n1
  -2	/
O=C(CSc1nccn1-c1ccc(F)cc1)NCc1ccc2c(c1)OCO2
  -1.51	/

Structures from the list above with a nitro group on carbon (three):
Sequence of screens – CDC25B-CDK2 inh	HIV TAR-Tat
COc1ccccc1Oc1ccccc1[N+](=O)[O-]
  -1.71	/
O=[N+]([O-])c1ccc(NC2CCSC2)c([N+](=O)[O-])c1 (configuration not stated)
  -1.89	/
O=[N+]([O-])c1cccc(-c2noc(-c3c(F)cccc3F)n2)c1
  -0.94	/

The list continues.
Sequence of screens – CDC25B-CDK2 inh	HIV TAR-Tat
CN(C1CCS(=O)(=O)C1)S(=O)(=O)c1ccc(Cl)cc1 (configuration not stated)
  -0.6	0.42
Cc1cc(C)n(-c2nc3ccccc3n3c(C)nnc23)n1
  1.1	0.81
COC(=O)c1ccc2c(c1)N(Cc1ccc(F)cc1)C(=O)[C@H]1CCCN21
  -0.83	-0.21
Cc1nnc2c(Nc3ccc(Br)cc3)nc3ccccc3n12
  -0.69	1.97
CCOC(=O)c1nnn(-c2nonc2N)c1-c1ccc(OCC)cc1
  -0.39	1.3
O=C(NCCCN1CCCC1=O)C1COc2ccccc2C1 (configuration not stated)
  /	0.69
CCn1c(C(=O)N2CCC(C(=O)NCCCN3CCN(C)CC3)CC2)cc2sccc21
  -1.98	-0.99
CCC(C)N(CCNS(=O)(=O)c1ccc2c(c1)CCCC(=O)N2)Cc1cccs1 (configuration not stated)
  /	0.22
CCOc1ccc2ncc(S(=O)(=O)c3ccc(C)c(C)c3)c(N3CCN(CC)CC3)c2c1
  -1	1.95
O=C1c2ccccc2C(=O)C1(Nc1ccccc1Cl)c1ccccc1
  /	0.23
C=CCn1c(SCC(N)=O)nc2c(c1=O)C1(CCCCC1)Cc1ccccc1-2
  1	0.16
COc1cc(NC(=O)Cn2ncn3nc4c(c3c2=O)CCCC4)cc(OC)c1
  /	-0.28
Cc1cc(C2CCCN2C(=O)c2cc(-c3ccc(Cl)cc3)on2)no1 (configuration not stated)
  /	1.99
CCCC(O)c1nc2ccccc2n1CCOc1ccc(OC)cc1 (configuration not stated)
  -0.24	0.87
Cc1ccc(-n2ccnc2SCc2nc(-c3ccc(Cl)cc3)no2)cc1
  /	0.85
COc1ccc(NC(=O)CCS(=O)(=O)c2ccc3c(c2)CCN3C(=O)C2CC2)cc1Cl
  /	0.24
Cc1ccc(C2CC(=O)C3=C(C2)Nc2ccccc2NC3c2ccncc2)cc1 (configuration not stated)
  -1.52	0.51
COc1ccc(N2C(=O)C3N=NN(Cc4ccc(F)cc4)C3C2=O)cc1 (configuration not stated)
  2.12	1.26
COc1ccc(Br)cc1CNC(=O)CCCn1sc2ccccc2c1=O
  -0.73	1.22
[O-]/[N+](Cc1ccccc1)=N\OCO/N=[N+](\[O-])Cc1ccccc1
  -1.55	/
CCOC(=O)CC(=O)CSc1ccc2nnc(-c3ccc(C)cc3)n2n1
  -0.97	/
Cc1ccc(S(=O)(=O)NCC(c2ccc(N(C)C)cc2)N(C)C)cc1C (configuration not stated)
  /	-0.64
CCN1CCN(C(=O)C(C)n2nc(C)c3sc4ccccc4c3c2=O)CC1 (configuration not stated)
  -2.35	0.44
CCOC(=O)/C(N=Nc1ccccc1)=C(\C)O
  -1.32	/
O=C(O)c1cnn2c(C(F)(F)F)cc(-c3ccc(Br)cc3)nc12
  /	1.56
Clc1ccc(Cc2cn3cc(-c4ccccc4)nc3s2)cc1
  -0.21	-0.69
O=C(c1ccco1)N1CCN(C(=O)c2ccc(CS(=O)Cc3ccc(Cl)cc3)o2)CC1 (configuration not stated)
  /	0.82
COc1cccc(-c2nc3c(s2)CN(S(=O)(=O)c2cccc4nsnc24)CC3)c1
  /	0.91
Cc1scc(CN2CCc3ccccc3C2)c1C
  /	1.33
CCCCC(=O)Nc1nc2nc(C)cc(C)n2n1
  -2.28	-0.66
Cc1sc2ncn(CC(=O)NCc3cccs3)c(=O)c2c1S(=O)(=O)N1CCC(C)CC1
  -0.36	-0.12
CC(C)Sc1ccc(Cl)nn1
  -0.93	0.74
Cc1c(C(=O)C(=O)NCCc2c[nH]c3ccccc23)c2ccccc2n1C
  -0.91	-1.82

Four compounds from above, ordered by heavy-atom count, smallest number first.
Sequence of screens – CDC25B-CDK2 inh	HIV TAR-Tat
CC1(C2(C)OCCO2)OCCO1
  -1.3	/
CC(C)OC(=O)c1cccc(C(=O)Oc2ccc(Br)cc2)n1
  -0.31	1.03
COc1cc(NC(=O)Cn2ncn3nc4c(c3c2=O)CCCC4)cc(OC)c1
  /	-0.28
CCC(/C=C/[C@@H](C)[C@H]1CCC2C3CC=C4C[C@@H](O)CC[C@]4(C)C3CC[C@@]21C)C(C)C (some centres not stated)
  /	1.26
